Screening data from PubChem.
Rango release inh = inhibition of RanGTP-driven Rango-importin beta dissociation | AID 540253 | Potency, µM (top dose mostly 46.1 µM), inactives show top-dose activity change, negative = inhibition | O95149+P62826 | Biochemical FRET Rango-importin beta, RanGTP-induced dissociation | hit rate 0.071% among 340,000; active means falling FRET ratio curve, often poorly fitted, with flat reads before Ran was added; inconclusive means other falling curves, or compound fluorescence or quenching; inactive means flat or rising ratio curve;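 also: potency is read from the fitted curve at half-maximal effect; % of control where 0% means no effect; nearly all actives have a fitted effect of over 45% in size; -100% = wells without RanGTP and RCC1; the record marks most hits as doubtful in a second field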
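Quantitative HTS using a FRET biosensor: 0.1 uM Rango, 0.25 uM importin beta, 0.6 uM Ran, 2 mM GTP, 0.2 uM RCC1 final, PBS with DTT, Tween-20 and BSA. Post-read taken 45 min after Ran addition.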
Rango complex inh = inhibitors of Rango-importin beta complex formation | Potency, µM (doses to about 92.2 µM), inactives show at the top dose inhibition of complex formation | hit rate 0.031% among 340,000 | Rango CFP/YFP FRET sensor + importin beta, 45 min; active = rising FRET ratio curve, often small or poorly fitted; inconclusive = mostly compound fluorescence or quenching in the first reads; inactive = flat curves in all reads;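 also: potency is read from the fitted curve at half-maximal effect; 0% = DMSO wells and 100% = buffer wells lacking importin beta; nearly all actives have a fitted effect of over 15% in size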
Target sequence (Q14974 whole entry, looked up): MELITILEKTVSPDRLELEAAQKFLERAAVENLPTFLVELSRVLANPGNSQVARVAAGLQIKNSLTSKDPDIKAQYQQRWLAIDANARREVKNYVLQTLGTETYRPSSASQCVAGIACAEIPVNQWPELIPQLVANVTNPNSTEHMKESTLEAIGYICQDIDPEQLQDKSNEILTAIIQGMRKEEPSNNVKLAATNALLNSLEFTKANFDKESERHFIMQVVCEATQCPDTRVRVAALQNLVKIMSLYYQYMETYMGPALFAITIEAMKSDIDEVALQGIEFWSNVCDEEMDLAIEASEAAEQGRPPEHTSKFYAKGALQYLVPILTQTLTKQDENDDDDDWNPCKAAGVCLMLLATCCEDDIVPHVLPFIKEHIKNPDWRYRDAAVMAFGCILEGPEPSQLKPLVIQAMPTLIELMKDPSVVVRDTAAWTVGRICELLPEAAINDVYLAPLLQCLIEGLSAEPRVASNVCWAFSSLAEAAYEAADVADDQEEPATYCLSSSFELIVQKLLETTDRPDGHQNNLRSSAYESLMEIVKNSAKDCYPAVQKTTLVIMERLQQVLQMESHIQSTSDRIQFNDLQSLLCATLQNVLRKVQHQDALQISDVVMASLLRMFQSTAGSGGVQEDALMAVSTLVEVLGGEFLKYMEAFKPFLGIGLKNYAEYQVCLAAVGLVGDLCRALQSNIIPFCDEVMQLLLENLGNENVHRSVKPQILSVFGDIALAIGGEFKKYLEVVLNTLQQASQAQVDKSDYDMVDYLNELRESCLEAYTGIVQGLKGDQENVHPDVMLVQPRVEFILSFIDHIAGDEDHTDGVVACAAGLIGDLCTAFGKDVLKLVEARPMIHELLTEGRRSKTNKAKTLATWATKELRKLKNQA
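Inhibition scored from the CFP 486 nm/YFP 530 nm FRET ratio 45 min after adding 0.125 microM importin beta to 50 nM Rango biosensor preincubated 5 min with compound (room temperature, PBS with DTT, Tween-20, BSA). No-importin wells as positive control.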
miR-21 FLuc = raises the signal of a miR-21 reporter; AID 2288; 340,000 tested, under 10 active; Potency, µM (series often up to 38.3 µM), for the others: top-dose reporter change, positive = more light; HeLa miR-21 FLuc reporter, luciferase, 48 h; active = well fitted rising curve with a large enough effect; inconclusive = small, poorly fitted or top-dose-only effect; inactive = no such curve, though single readings can be large or run the other way;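 also: % of control where 0% means no effect; miR-21 action dims this reporter so a rising signal means less miR-21 action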
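HeLa cells stably expressing CMV-driven firefly luciferase with a downstream miR-21 binding sequence, endogenously expressing miR-21, were treated with titrations (up to about 40uM final) for 48 hours at 37 degree Celsius. Luciferase luminescence was read after lysis.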
GLA inh pH 4.5 = inhibitors of human alpha-galactosidase A at pH 4.5; AID 1467; P06280; activity change, negative = inhibition, % at 105 µM; 230,000 tested, under 10 active; purified enzyme, 4-MU-alpha-Gal fluorescence, pH 4.5; inconclusive = small, poorly fitted or top-dose-only inhibition, or a rising curve; inactive = flat fitted curve, though single readings scatter; no compound was filed as active;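 also: 0% = full activity with enzyme and -100% = basal without enzyme; dose as in the result columns while the protocol names 77 µM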
The depositor's hits bear a star; ? = inconclusive; . = no result given; & = joins results of further samples. Not all compounds are listed; the hit share may differ from the screen's.

SMILES	Rango release inh	Rango complex inh	miR-21 FLuc	GLA inh pH 4.5
CCOc1ccc(N2CC(=O)N(c3ccc(OCC)cc3)CC2=O)cc1	16.6%	8.8%	2.7%	-2.1
CCOc1ccc(NS(=O)(=O)c2ccc(C(=O)NCC(c3ccccc3OC)N3CCCC3)cc2)cc1 (stereo not given)	16.1%	-0.6%	.	.
CCN(CC)C(=O)C(=O)c1cn(CC(=O)N2CCc3ccccc3C2)c2ccccc12	-1.4%	0.9%	11.7%	3.6
Cc1cccc(OCC(=O)Nc2ccc(S(=O)(=O)Nc3onc(C)c3C)cc2)c1C	0.0%	-1.8%	-3.4%&1.8%	.
CCn1c2ccccc2c2cc(NC(=O)COC(=O)c3cc(Cl)c(N)cc3OC)ccc21	-5.3%	3.1%	-4.7%	0.5
COc1ccc(-c2csc(NC(C)c3nc4cc(Cl)c(N5CCCCC5)cc4n3CCOCCO)n2)cc1 (stereo not given)	0.3%	0.0%	.	.
CCOc1cc(CN2CCC(n3nccc3NC(=O)C3CC3)CC2)ccc1O	-12.5%	3.7%	-0.7%	.
Cc1cc(=O)[nH]c(=O)n1Cc1ccccc1	5.3%	6.1%	0.6%	4.6
CCOC(=O)CON1C(=O)C(=O)N(OCC(=O)OCC)[C@H]2CCCC[C@H]21	-0.5%	-3.1%	-0.1%	0.9
CCOc1ccc(CCNC(=O)c2ccc3nc(CC)c(CC)nc3c2)cc1	21.8%	-4.1%	0.7%&5.0%	.
COc1cc(NC(=O)CN2CC(c3ccccc3)CC2=O)cc(OC)c1 (stereo not given)	-10.8%	1.8%	-4.6%	1.2
Cc1ccc2oc(Nc3nc(C)c(C)c(C)n3)nc2c1	-10.4%	0.2%	-55.0%	-11.4
CCN(CC)C(CNC(=O)CSc1nnnn1-c1ccc(C)c(C)c1)c1ccco1 (stereo not given)	23.9%	0.7%	.	.
COc1ccc(CNC(=O)COC(=O)c2cc3ccccc3cc2O)cc1OC	-8.1%	1.9%	.	.
COc1ccc(CCN(C)C(=O)c2ccc(S(=O)(=O)NCc3ccco3)cc2)cc1OC	6.0%	0.1%	-12.5%	-2.0
O=C(CCCn1c(SCC(=O)c2ccccc2)nc2ccccc2c1=O)NCC1CCCO1 (stereo not given)	7.7%	0.9%	4.1%	1.7
CCn1c(=O)cc(N2CCCCC2)[nH]c1=O	-5.8%	-0.3%	0.8%	4.3
Cc1cc(C)nc(NC(=O)/C=C/c2cccs2)c1	4.4%	3.7%	-28.9%	-2.9
Cn1c(SCC(=O)Nc2ccc3nc(SCC(=O)N4CCCC4)sc3c2)nnc1-c1ccc(N)cc1	1.5%	-0.2%	12.1%	-0.8
COc1ccc(-n2c(Cc3cccn3C)nnc2SCC(=O)Nc2ccccc2OC)cc1	21.7%	1.7%	-5.6%	6.2
Cc1cc(NC(=O)NCc2ccccc2)c(=O)n(Cc2ccc(F)cc2)c1	-13.9%	3.1%	-13.4%	.
CCOC(=O)CN(Cc1sccc1C)C(=O)Nc1ccc(OC)cc1OC	-21.4%	0.6%	-4.7%	-1.9
Cc1ccc(C)c2[nH]c(=O)c(C(c3nnnn3CCc3ccccc3)N3CCOCC3)cc12 (stereo not given)	-10.2%	-3.4%	-0.3%	-1.6
O=C1[C@H]2[C@@H](c3ccc(Cl)cc3)N3C(=O)N(c4cccc(Cl)c4)C(=O)[C@@]3(Cc3ccccc3)[C@H]2C(=O)N1C1CCCCC1	-17.9%	2.1%	.	.
CCN1C(=O)C(CC(=O)NCCc2ccccc2)N(NC(=O)c2cccnc2)C1=S (stereo not given)	-16.5%	-5.9%	4.3%	1.2
COCCN(C(=O)Nc1ccccc1OC)c1nc2ccccc2s1	20.7%	-2.4%	-24.5%	.
Cc1cc(C(=O)Nc2ccccc2C(=O)O)oc1C	-15.5%	0.1%	-20.0%	.
COc1ccc(CCN2CC(C(=O)NCC(c3ccccc3)N(C)C)CC2=O)cc1OC (stereo not given)	12.4%	4.2%	.	.
CCN(CC(=O)Nc1ccc(OC)cc1)CC(=O)N1CC(=O)Nc2ccccc21	-4.1%	-2.8%	.	.
O=C(c1cnn(-c2ccccc2)c1-n1cccc1)N1CCN(C2CCCCC2)CC1	8.3%	8.6%	1.4%	-0.3

A run of entries of the results above, for reference:
SMILES	Rango release inh	Rango complex inh	miR-21 FLuc	GLA inh pH 4.5
Cc1cc(NC(=O)NCc2ccccc2)c(=O)n(Cc2ccc(F)cc2)c1	-13.9%	3.1%	-13.4%	.
CCOC(=O)CN(Cc1sccc1C)C(=O)Nc1ccc(OC)cc1OC	-21.4%	0.6%	-4.7%	-1.9

(listing goes on)
SMILES	Rango release inh	Rango complex inh	miR-21 FLuc	GLA inh pH 4.5
CC(NC(=O)CN1c2cccc3cccc(c23)S1(=O)=O)c1ccc(S(N)(=O)=O)cc1 (stereo not given)	18.7%	-0.2%	.	.
Cc1ccc(NC2=C(Cl)C(=O)c3ccccc3C2=O)cc1	-0.6%	3.7%	-50.5%	3.9
O=C(NCCc1ccc(Cl)cc1)c1ccc2[nH]c(=O)c(=O)[nH]c2c1	26.7%	-0.9%	-8.8%	.
O=C(OCC(=O)N1CCCCCC1)c1ccc[nH]c1=O	8.9%	-0.8%	.	.
NC1=NC(=O)/C(=C\c2ccco2)S1	-11.4%	1.1%	-0.3%	0.2
CN1CCN(c2nc3c(c(=O)n(C)c(=O)n3C)n2CC(=O)C23CC4CC(CC(C4)C2)C3)CC1	-5.7%	3.5%	-13.1%	-8.4
Nn1c(COc2ccccc2)nnc1SCc1cc(=O)[nH]c2ccccc12	1.8%	-2.8%	-0.1%	-0.1
COc1ccc(C(C)=O)cc1COc1ccc(-n2cnnn2)cc1	6.6%	2.0%	-12.6%	-2.0
O=C1[C@H]2CC3CCC2(O3)[C@@H]2OCCCN12 (stereo not given in full)	32.3%	-0.5%	.	.
O=C(NCCCn1ccnc1)/C(=C\c1cccnc1)NC(=O)c1cccc(Br)c1	13.8%	1.1%	-5.6%	-13.0
O=[N+]([O-])c1cccc(/C=N/N2CCN(c3ccccn3)CC2)c1	?	0.1%	-12.7%	-6.2
NS(=O)(=O)c1ccc(N=Nc2c(O)ccc3ccccc23)cc1	-25.2%	-0.8%	-10.7%	0.5
COc1cccc(/C=N/NC(=O)c2ccc(=O)n(C)c2)c1OC	0.3%	-0.3%	-2.8%	3.8
Cc1nc2sc3c(c2c(=O)n1N)CCC3	1.7%	0.3%	-3.2%	1.5
Cc1ccccc1NC(=O)CSC1=C(C#N)C(c2ccsc2)CC(=O)N1 (stereo not given)	-15.3%	0.7%	2.2%	-2.5
O=C(c1ccccc1)N1CCc2ccccc21	15.1%	5.0%	-6.3%	-3.5
CCOC(=O)c1csc(NC(=O)CSc2nnnn2CC)n1	0.8%	-0.1%	-2.4%	-17.4
COc1cccc(/C=C(/C(=O)OCC(N)=O)c2ccccc2)c1	-6.4%	5.4%	0.0%	-8.4
CC1=[N+]([O-])C(C)(C)C(C)N(O)C1=O (stereo not given)	-8.5%	0.7%	-3.7%	-1.3
CCOc1ccc(C(=O)COC(=O)CN2C(=O)NC3(CCCCC3C)C2=O)cc1 (stereo not given)	17.7%	4.3%	.	.
CCC1(C(=O)OC)NC(c2ccco2)C2C(=O)N(c3ccccc3)C(=O)C21 (stereo not given)	-18.4%	-6.0%	-0.7%	-3.9
COc1cc(-c2csc(C)n2)ccc1O	1.0%	-0.8%	-13.7%	-5.8
CCNC(=S)Nc1cccc(F)c1C	5.6%	0.1%	0.0%	11.3
COc1ccc(CNC(=O)CCSCc2cccc(F)c2)cc1	-8.9%	0.3%	-1.1%	.
CN(C)S(=O)(=O)c1ccc(Cl)c(C(=O)OCC(=O)NNC(=O)c2cccs2)c1	8.4%	4.0%	.	.
CCn1c(CSc2nc3ccccc3s2)nnc1SCC(=O)c1ccc(Cl)cc1	-13.9%	-1.7%	-14.9%	-4.1
O=C(CC1C(=O)NCCN1Cc1cccc(C(F)(F)F)c1)NC1CCCCCC1 (stereo not given)	-24.0%	?	-2.7%	.
COc1ccc(C)cc1NC(=O)C1CCCN(S(=O)(=O)c2cccc3nonc23)C1 (stereo not given)	23.3%	-1.7%	-7.8%	-5.6
O=C(/C=C/c1ccccc1Cl)NCCN1CCOCC1	0.4%	-1.7%	-14.6%	1.3
CCn1cc([C@@H]2C[C@H]3CN(Cc4cccc(Cl)c4)C(=O)[C@]34CCCN24)c(C)n1	-7.7%	2.0%	-9.3%	6.0
CCCC(c1nnnn1Cc1cccs1)N1CCN(c2nc3ccccc3s2)CC1 (stereo not given)	-12.0%	1.3%	-13.3%	-13.6
COc1ccc(C(CNC(=O)c2oc3cc(Br)ccc3c2C)N2CCCCC2)cc1 (stereo not given)	11.3%	-0.5%	-1.9%&5.6%	.
O=C(N/N=C/c1ccc(O)c(O)c1)c1cccc(S(=O)(=O)N2CCCCC2)c1	-2.0%	0.5%	-6.4%	4.3
Oc1ccc(-n2cnnn2)cc1	10.8%	0.0%	0.5%	0.8
CCCNc1nc(Cl)nc(Nc2ccc(Cl)cc2)n1	-6.8%	-1.3%	-10.7%	.
CCc1nnc(NC(=O)CSc2nc3c(cc2C#N)CCC3)s1	?	?	-46.9%	7.6
COc1ccc(C(=O)NNC(=O)C(=O)Nc2ccc(C)cc2)cc1	1.7%	-0.1%	-9.2%	.
CCN(CC)S(=O)(=O)c1cc(C(=O)O)ccc1Cl	9.8%	-1.2%	-1.5%	-10.2
Cc1cccc(C2c3[nH]c4ccccc4c3CCN2C(=O)c2cc(-c3cccn3C)n[nH]2)n1 (stereo not given)	2.1%	-1.7%	17.0%	-17.7
CCCOc1ccc(N2C(=O)CC(N(CCc3ccc(OC)cc3)C(=O)/C=C/C(=O)O)C2=O)cc1 (stereo not given)	-6.2%	?	-1.6%	-28.6
CCOc1ccc(CSCCNC(=S)Nc2ccc(OC)cc2)cc1	3.1%	-3.3%	23.4%	-4.7
CCCC(=O)Nc1nnc(S(=O)(=O)N(CC)c2ccc(OC)cc2)s1	2.8%	0.0%	0.8%	.
CC1(C)CC2CC(C)(CN2C(=O)c2cc(-c3ccc(O)cc3)on2)C1 (stereo not given)	6.9%	0.3%	1.3%	.
O=C(COC(=O)c1cccs1)NCCC1=CCCCC1	-2.8%	-2.5%	-6.7%	2.7
Cc1ccc(OCCc2csc(N)n2)cc1	1.0%	0.6%	-39.5%	-24.6
Cc1ccc(Cn2nnnc2CN2CCC(O)(c3ccc(F)cc3)CC2)cc1	-7.8%	4.3%	-3.5%	3.4
O=[N+]([O-])c1ccc(N2CCN(S(=O)(=O)c3ccccc3)CC2)cc1NCc1ccco1	.	.	-2.3%	3.4
COc1ccc(C)cc1NS(=O)(=O)c1ccc2c(c1)N(C)CCO2	-12.8%	1.3%	11.4%	.
FC(F)(F)c1ccc(Oc2ccc3c(C(F)(F)F)cc(C(F)(F)F)nc3n2)cc1	1.1%	-4.9%	-2.9%	6.3
COc1cc(/C=N/NC(=O)c2ccncc2)ccc1OC(=O)c1ccccc1Cl	24.2%	3.8%	-1.4%	3.1
Next section
SMILES	Rango release inh	Rango complex inh	miR-21 FLuc	GLA inh pH 4.5
CC1CCCN(C(=O)COC(=O)COc2ccc(Cl)cc2)C1 (stereo not given)	?	0.1%	.	.
Cc1cc(-n2cccn2)ccc1CN1CCN(C2CCCC2)C(CCO)C1 (stereo not given)	4.0%	1.4%	-5.3%	-11.2
Fc1ccc(CN2C3=NCCCN3c3ccccc32)cc1	2.2%	1.2%	7.2%	3.4
CCC(C)(C)n1nnnc1C(c1ccc(O)cc1)N1CCc2ccccc2C1 (stereo not given)	0.7%	1.7%	-0.2%	-11.2
CCCCCCCc1nc2nc(C)c(Br)c(=O)n2[nH]1	-8.1%	1.0%	-9.7%	2.0
O=C(CCC(=O)c1cccs1)Nc1ccc(N2CCCCC2)cc1	4.6%	-0.3%	-35.8%	2.8
CCOC(=O)N1CCN(C(=O)c2oc3ccc(S(=O)(=O)N4CCOCC4)cc3c2C)CC1	-15.0%	1.8%	21.1%	-2.4
Nc1c(/C=C2/C=CC(=O)C(O)=C2)c(=O)nc2sc(CC(=O)N3CCCC3)nn12	?	?	-13.9%	.
Cc1cc(NC(=O)CSc2nnc(-c3cccnc3)n2C)no1	0.3%	-0.4%	0.5%	0.1
